Sa RN4220 lethal: kills Staphylococcus aureus RN4220 | S. aureus RN4220 growth, OD600, 16 h | 330,000 compounds, 0.33% hits | inhibition, % (concentration not given with the values);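 active = z-score of -3 or lower and OD600 up to 0.18 on both plates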;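 also: plate controls were untreated cells for no effect and reference antibiotic for full effect; stock transfer was 100 nL into about 80 µL; one replicate is shown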
ugtP null kill: compounds lethal to S. aureus RN4220 ugtP deletion mutant. OD600 growth, 16 h; some inactives read as strong as hits. 330,000 compounds, 0.54% hits. growth inhibition, % (concentration not given with the values). AID 1259309;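 active = z-score under -3 and OD600 up to 0.15 on both plates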;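 also: plate controls were untreated wells for no effect and antibiotic for full effect; wells of about 80 µL received 100 nL stock; the first replicate is given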
Mtb hypoxia rep: reduces hypoxia-regulated biosensor signal in M. tuberculosis; M. tuberculosis hypoxia-regulated fluorescent reporter, fluorescence; AID 1159583; 300,000 compounds, 0.1% hits; fluorescence inhibition, % (no concentration beside the values);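 active = 35 to 45% if threefold the growth effect, above 45% if 1.5-fold the growth effect; inactive = the rest, general growth blockers included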;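 also: wells of about 50 µL received 100 nL stock; 0% = vehicle wells and 100% = reference inhibitor wells; whole bacteria with a GFP reporter of the hypoxia response; strong numbers were not always called active; many hits fall short of the cut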
BJeLR viability: kills HRASV12-expressing BJeLR cells; BJeLR (HRASV12) viability, CellTiter-Glo ATP luminescence, 48 h; reference of the scale not given here; inhibition, % (no concentration beside the values); 300,000 compounds, 0.17% hits; AID 1554;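 active = replicate mean above 50%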;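 also: 50 nL library stock added to about 25 µL; numbers are from one replicate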
Bead autofluor: counter-screen for toxin protease inhibitors: compound fluorescence. 360,000 compounds, 3.1% hits. fluorescence intensity (concentration not given with the values). compound autofluorescence counterscreen, microsphere flow cytometry; hits give high values. AID 624483;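 active = at least 3 SD above the mean of all compounds, about 16000 in these data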;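 also: 100 nL of 1 mM stock went into each well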
PrP UTR inh: suppresses PrP 5' UTR mRNA reporter expression; cell-based PrP 5' UTR mRNA reporter, plate reader; inhibition, % (test concentration not listed); 340,000 compounds, 0.35% hits;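 active = every replicate at 50% or more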;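 also: 0 = median of the neutral control wells; tested in H4 reporter cells; numbers are from one replicate; inactives centre near -14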
Mtb hypoxia rep growth: also measured in Mtb hypoxia rep; calls as there; growth inhibition, %; measured here: M. tuberculosis growth (absorbance);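 0% = vehicle and 100% = reference antibiotic; read after six days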
* = called active by the depositor; / = not tested or not shown; & = joins results of further samples. An excerpt; rates above refer to the full screens.

1) c1ccc(CC2=NCCN2)cc1
2) O=S(=O)(c1cccc2cnccc12)N1CCCNCC1
3) C1CCC(C(CC2CCCCN2)C2CCCCC2)CC1 (stereo unspecified)
4) CCOc1ccccc1C(N)=O
5) NC(=O)c1cccc(-c2cc(Nc3ccc(OC(F)(F)F)cc3)ncn2)c1
6) Cc1nc2ccccn2c(=O)c1CCN1CCC(C(=O)c2ccc(F)cc2)CC1
7) COc1ccc(C=CC(=O)Nc2ccccc2C(=O)O)cc1OC
8) COc1cc2c(c(OC)c1OC)-c1c(cc3c(c1OC)OCO3)[C@@H](OC(C)=O)[C@H](C)[C@H](C)C2
screen / no. | 1 | 2 | 3 | 4 | 5 | 6 | 7 | 8
Mtb hypoxia rep | 5 | 2 | 22 | 9 | 7 | -1 | 4 | /
ugtP null kill | 0 | 3 | -17&-26 | 7 | -15 | -2 | -7 | /
Bead autofluor | 4149 | 5399 | 6126&5826 | 5222 | 2913 | 5936 | / | 4179
PrP UTR inh | 9 | 27 | 3&-17 | -19 | -15 | -8 | / | -15
Sa RN4220 lethal | 4.3 | 5.5 | -6.5&-12 | 5.5 | -11 | 4.8 | 5.4 | /
Mtb hypoxia rep growth | 4 | -1 | 21 | 0 | 8 | 8 | 4 | /
BJeLR viability | 4 | -6 | -1 | / | 7 | 6 | / | -7

Overlap with the part before: 4 compounds; new compounds follow.
5) NC(=O)c1cccc(-c2cc(Nc3ccc(OC(F)(F)F)cc3)ncn2)c1
6) Cc1nc2ccccn2c(=O)c1CCN1CCC(C(=O)c2ccc(F)cc2)CC1
7) COc1ccc(C=CC(=O)Nc2ccccc2C(=O)O)cc1OC
8) COc1cc2c(c(OC)c1OC)-c1c(cc3c(c1OC)OCO3)[C@@H](OC(C)=O)[C@H](C)[C@H](C)C2
9) O=C(NCCc1c[nH]c2ccccc12)c1cccnc1
10) CCC(C)n1ncn(-c2ccc(N3CCN(c4ccc(OCC5COC(Cn6cncn6)(c6ccc(Cl)cc6Cl)O5)cc4)CC3)cc2)c1=O (stereo unspecified)
11) CCOC(=O)C(CCc1ccccc1)NC(C)C(=O)N1Cc2ccccc2CC1C(=O)O (stereo unspecified)
12) CCCn1cnc2c1c(=O)n(CCCCC(C)=O)c(=O)n2C
13) Cc1[nH]c2ccccc2c1C=NNC(N)=S
14) Oc1ccc(/C=C/c2cc(O)cc(O)c2)cc1
15) CCOc1ccc(C(=O)OCCN(CC)CC)cc1
16) C[C@]12CCC(=O)C=C1CC[C@@H]1[C@@H]2CC[C@@]2(C)[C@H]1CC[C@]2(O)C(=O)CO
screen / no. | 5 | 6 | 7 | 8 | 9 | 10 | 11 | 12 | 13 | 14 | 15 | 16
Mtb hypoxia rep | 7 | -1 | 4 | / | -3 | -12 | 3 | 1 | / | / | / | /
ugtP null kill | -15 | -2 | -7 | / | -4 | -11 | 1 | -1 | 0 | / | 0 | /
Bead autofluor | 2913 | 5936 | / | 4179 | 5404 | 5759 | / | 4104 | / | 5261 | 2723 | 5735
PrP UTR inh | -15 | -8 | / | -15 | -23 | 14&-10 | / | -23 | / | -70 | 1 | 5
Sa RN4220 lethal | -11 | 4.8 | 5.4 | / | -1.6 | 2.4 | 3.6 | 3.3 | 5.5 | / | -1.1 | /
Mtb hypoxia rep growth | 8 | 8 | 4 | / | 13 | 12 | -3 | -2 | / | / | / | /
BJeLR viability | 7 | 6 | / | -7 | -8 | 6 | / | -1 | / | -14 | -3 | 0

Fetched by structure from the list above, seven records:
4) CCOc1ccccc1C(N)=O
9) O=C(NCCc1c[nH]c2ccccc12)c1cccnc1
3) C1CCC(C(CC2CCCCN2)C2CCCCC2)CC1 (stereo unspecified)
13) Cc1[nH]c2ccccc2c1C=NNC(N)=S
2) O=S(=O)(c1cccc2cnccc12)N1CCCNCC1
8) COc1cc2c(c(OC)c1OC)-c1c(cc3c(c1OC)OCO3)[C@@H](OC(C)=O)[C@H](C)[C@H](C)C2
11) CCOC(=O)C(CCc1ccccc1)NC(C)C(=O)N1Cc2ccccc2CC1C(=O)O (stereo unspecified)
screen / no. | 4 | 9 | 3 | 13 | 2 | 8 | 11
Mtb hypoxia rep | 9 | -3 | 22 | / | 2 | / | 3
ugtP null kill | 7 | -4 | -17&-26 | 0 | 3 | / | 1
Bead autofluor | 5222 | 5404 | 6126&5826 | / | 5399 | 4179 | /
PrP UTR inh | -19 | -23 | 3&-17 | / | 27 | -15 | /
Sa RN4220 lethal | 5.5 | -1.6 | -6.5&-12 | 5.5 | 5.5 | / | 3.6
Mtb hypoxia rep growth | 0 | 13 | 21 | / | -1 | / | -3
BJeLR viability | / | -8 | -1 | / | -6 | -7 | /

Other records
17) CC[N+](C)(CC)CCOC(=O)C(O)(c1ccccc1)C1CCCCC1 (stereo unspecified)
18) O=C(c1ccc(F)cc1)C1CCN(CCn2c(=O)[nH]c3ccccc3c2=O)CC1
19) c1ccc(CN(CC2=NCCN2)c2ccccc2)cc1
20) CN1CCOC(c2ccccc2)c2ccccc2C1 (stereo unspecified)
21) CC1(C)Cc2c(sc(NC(=S)NC(=O)c3ccccc3)c2C(=O)O)CO1
22) CC(=O)NC(Cc1ccccc1)C(=O)O (stereo unspecified)
23) COc1ccc(C(=O)NCc2ccc(OCCN(C)C)cc2)cc1OC
24) OCCN1CCN(CCCN2c3ccccc3Sc3ccc(Cl)cc32)CC1
screen / no. | 17 | 18 | 19 | 20 | 21 | 22 | 23 | 24
Mtb hypoxia rep | 5 | 3&-2 | -1&14 | / | 3 | / | 7 | 17
ugtP null kill | -1 | 0&-4 | -5&-4 | / | 42 | 0 | -4 | -2
Bead autofluor | 5887 | 5718&5926 | 4379&4576 | 5516 | 2592 | 5531 | 4294 | 4398
PrP UTR inh | -3 | -4&-10 | -2&1 | -21 | -9 | -36 | -8 | -11
Sa RN4220 lethal | 6.3 | 3.9&2.8 | 3.2&1.7 | / | 18 | 3.2 | 8.6 | -2.7
Mtb hypoxia rep growth | 8 | 15&2 | 0&5 | / | -2 | / | 1 | 22
BJeLR viability | 0 | 6 | -2&-3 | -12 | -4 | 1 | 6 | -11

25) Cc1c(NC(=O)c2cccnc2)c(=O)n(-c2ccccc2)n1C
26) CCCNC(C)C(=O)Nc1c(C)csc1C(=O)OC (stereo unspecified)
27) O=C(CCNNC(=O)c1ccncc1)NCc1ccccc1
28) CC12CCC(CC1)C(C)(C)O2
29) O=C(CCN1CCC(c2ccccc2)C1)c1ccc2c(c1)OCCO2 (stereo unspecified)
30) C=CC1=C(C(=O)O)N2C(=O)[C@@H](NC(=O)/C(=N\O)c3csc(N)n3)[C@H]2SC1 (stereo in doubt)
31) CC=CC(=O)N(CC)c1ccccc1C
32) COc1ccc(/C=C/C(=O)Nc2ccccc2C(=O)O)cc1OC
screen / no. | 25 | 26 | 27 | 28 | 29 | 30 | 31 | 32
Mtb hypoxia rep | -16 | / | 13 | / | 0 | / | -6 | /
ugtP null kill | 0 | -6 | 5 | -13 | -4 | / | 1 | /
Bead autofluor | 3861 | 6068 | 6013 | 5136 | 6359 | 5416 | / | 4407
PrP UTR inh | -12 | -67 | -3 | -12 | -3 | -12 | / | -4
Sa RN4220 lethal | -0.9 | 2.5 | 1.8 | 4.8 | 3.4 | / | 4.7 | /
Mtb hypoxia rep growth | -1 | / | 6 | / | -4 | / | -13 | /
BJeLR viability | -5 | / | -3 | 3 | -15 | 5 | / | -2

33) CCCCCCO
34) Cc1cc(-c2ccccc2)nnc1NCCN1CCOCC1
35) NC(=O)c1cn(Cc2c(F)cccc2F)nn1
36) CC(=O)Nc1ccc(C(=O)O)cc1
37) OC(C#CCN1CCCC1)(c1ccccc1)c1ccccc1
38) CCOc1ccc(NC(=O)Cn2cc(C(=O)c3ccco3)c3ccccc32)cc1
39) CN1CCN(C(c2ccccc2)c2ccccc2)CC1
40) Cc1cc(Nc2cc(N3CCN(C)CC3)nc(Sc3ccc(NC(=O)C4CC4)cc3)n2)n[nH]1
41) CN1CCN(CCC(=O)N2c3ccccc3Sc3ccc(C(F)(F)F)cc32)CC1
42) CC1CC2C3CC(F)C4=CC(=O)C(Cl)=C[C@]4(C)[C@@]3(F)C(O)C[C@]2(C)[C@@]1(O)C(=O)CO (stereo partly specified)
43) CC(=O)c1ccc(S(=O)(=O)NC(=O)NC2CCCCC2)cc1
screen / no. | 33 | 34 | 35 | 36 | 37 | 38 | 39 | 40 | 41 | 42 | 43
Mtb hypoxia rep | 13 | 2 | 2 | / | 3 | 9 | 5 | 4 | 6 | 13 | -2
ugtP null kill | 2 | 1 | -2 | -8 | 7 | -13 | 5 | 29 | 0 | -7 | -3
Bead autofluor | 5720 | 6266 | 5052 | 6057 | 5873 | 16382* | 5445 | 3790 | 8003 | / | 5951
PrP UTR inh | -18 | -6 | -9 | -4 | 7 | -3 | -23 | -47 | -28 | / | -6
Sa RN4220 lethal | 3.1 | 4.7 | 3.2 | 3.3 | 3.2 | 5.0 | -2.0 | -14 | -1.4 | 4.6 | 4.5
Mtb hypoxia rep growth | 13 | 0 | -5 | / | -2 | 13 | 5 | -4 | 7 | 8 | -2
BJeLR viability | / | -11 | -7 | / | 8 | 2 | / | 8 | 1 | / | /
